Assay outcomes from PubChem.
Mtb hypoxia inh: Mtb hypoxia fluorescent reporter inhibition. M. tuberculosis hypoxia-regulated fluorescent reporter, fluorescence. fluorescence inhibition, % (test concentration not listed). 300,000 compounds, 0.1% hits. AID 1159583;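 active = 35 to 45% if threefold the growth effect, above 45% if 1.5-fold the growth effect; inactive = the rest, general growth blockers included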;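 note: wells of about 50 µL received 100 nL stock; 0% = vehicle wells and 100% = reference inhibitor wells; whole bacteria with a GFP reporter of the hypoxia response; strong numbers were not always called active; many hits fall short of the cut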
ugtP null kill: kills S. aureus RN4220 lacking UgtP. growth inhibition, % (concentration not given with the values). AID 1259309. 330,000 compounds, 0.54% hits. S. aureus RN4220 ugtP deletion, OD600 growth, 16 h; some inactives read as strong as hits;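 active = z-score under -3 and OD600 up to 0.15 on both plates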;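 note: plate controls were untreated wells for no effect and antibiotic for full effect; wells of about 80 µL received 100 nL stock; the first replicate is given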
RN4220 kill: S. aureus RN4220 growth inhibition; OD600, 16 h; inhibition, % (test concentration not listed); 330,000 compounds, 0.33% hits; AID 1259311;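 active = z-score of -3 or lower and OD600 up to 0.18 on both plates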;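 note: plate controls were untreated cells for no effect and reference antibiotic for full effect; stock transfer was 100 nL into about 80 µL; one replicate is shown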
BJeLR viability: kills HRASV12-expressing BJeLR cells. BJeLR (HRASV12) viability, CellTiter-Glo ATP luminescence, 48 h; reference of the scale not given here. inhibition, % (concentration not given with the values). 300,000 compounds, 0.17% hits;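 active = replicate mean above 50%; inconclusive = above 50% but judged a plate artefact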;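 note: 50 nL library stock added to about 25 µL; numbers are from one replicate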
PrP 5UTR inh: suppresses PrP 5' UTR mRNA reporter expression; cell-based PrP 5' UTR mRNA reporter, plate reader; inhibition, % (concentration not given with the values); 340,000 compounds, 0.35% hits; AID 488862;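 active = every replicate at 50% or more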;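 note: 0 = median of the neutral control wells; tested in H4 reporter cells; numbers are from one replicate; inactives centre near -14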
Bead autofluor: compound fluorescence in toxin protease inhibitor counterscreen; compound autofluorescence counterscreen, microsphere flow cytometry; active compounds read high; fluorescence intensity (test concentration not listed); 360,000 compounds, 3.1% hits; AID 624483;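 active = at least 3 SD above the mean of all compounds, about 16000 in these data; inconclusive = too few beads counted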;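 note: 100 nL of 1 mM stock went into each well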
Mtb hypoxia inh growth: further read-out of Mtb hypoxia inh, marked with its call; growth inhibition, %; measured here: M. tuberculosis growth (absorbance);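 0% = vehicle and 100% = reference antibiotic; read after six days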
* hit, by the source's call; ? = inconclusive; . = no result given.

SMILES | Mtb hypoxia inh | Mtb hypoxia inh growth | ugtP null kill | RN4220 kill | BJeLR viability | PrP 5UTR inh | Bead autofluor
Cc1cccc(Nc2nc(-c3ccc(O)c(O)c3)cs2)n1 | 1.2 | 1.5 | -14.7 | 3.4 | 10.1 | -140.5 | 3943
O=C(NCC(c1ccco1)N1CCc2ccccc2C1)c1cccc(F)c1 (stereo unspecified) | -4.6 | -3.9 | 6.8 | 1.0 | -5.8 | -18.9 | 5689
CCOC(=O)COn1c(-n2nc(C)cc2C)nc2ccccc2c1=O | 0.9 | -0.6 | 13.0 | 5.3 | -1.9 | -5.5 | 2978
CN1CCN(C(=O)C2CCN(S(=O)(=O)c3ccc4c(c3)oc(=O)n4C)CC2)CC1 | 2.3 | 0.3 | 9.2 | 4.9 | . | -14.7 | 6113
CC1CCCCC1NC(=O)C1CCN(S(=O)(=O)N2CCCCCC2)CC1 (stereo unspecified) | -10.9 | -5.3 | 7.1 | -0.1 | 11.6 | -4.4 | 18939*
Cc1cc(S(=O)(=O)Nc2cccc([N+](=O)[O-])c2)c(C)s1 | 2.0 | -13.5 | -2.1 | 4.6 | 4.7 | 1.1 | 3924
Cc1cccc(OCc2nnc(SCC(=O)NCCc3ccccc3)o2)c1 | 15.2 | 6.0 | -1.7 | 3.6 | 1.6 | -5.1 | 8198
Cc1ccc(S(=O)c2snnc2C)cc1 (stereo unspecified) | 5.1 | -12.5 | 1.4 | 1.9 | -7.5 | -20.2 | 4020
O=C(Oc1ccc(N2C(=O)CCC2=O)cc1)c1ccccc1Cl | -8.8 | 8.3 | -4.1 | 2.3 | -4.1 | 7.5 | 7697
COc1ccc(S(=O)(=O)N2CCC(C(=O)N[C@@H](C)C(=O)NC3CCCC3)CC2)cc1 | -6.3 | -5.0 | 15.6 | 4.4 | 5.3 | -20.4 | 5484
c1ccc(CCCNc2ncnc3nc[nH]c23)cc1 | 9.0 | 3.8 | 10.2 | 5.3 | 2.0 | -6.1 | 5306
CN1C(=O)/C(=C/c2ccc(O)c([N+](=O)[O-])c2)NC1=S | 12.3 | -2.5 | -1.6 | 6.5 | 5.2 | -14.2 | 4595
COc1ccc(N(CCC#N)C(=O)/C(C#N)=C/c2cccs2)cc1 | -7.5 | 0.2 | 0.6 | 0.1 | -2.4 | -19.4 | 3950
Cc1nc(SCC(=O)NCC2CCCO2)c2c(C)c(C)sc2n1 (stereo unspecified) | 4.7 | 10.2 | 1.6 | 5.7 | . | -17.4 | 8236
CN(CC(=O)Nc1ccc(Cl)cc1)C(=O)c1ccc(S(=O)(=O)Nc2ccccc2)cc1 | 7.0 | 3.9 | 16.6 | -2.5 | -11.8 | -14.1 | ?
Cc1nc2c(C(=O)NCc3ccc4c(c3)OCO4)cnn2c(C)c1Cc1ccc(F)cc1Cl | -0.5 | 5.1 | -7.0 | 0.0 | -9.0 | . | 11991
Cc1nc2ccc(Br)cn2c1C(=O)N/N=C\c1ccccc1Cl | . | . | . | . | -1.7 | 38.6 | 3331
CC1(C)CC2CC(C)(CN2C(=O)CN2C(=O)c3ccccc3C2=O)C1 (stereo unspecified) | 7.9 | 0.2 | 1.7 | 5.0 | -4.0 | -3.8 | 10032
Cc1cc(NCc2ccccn2)n2ncc(-c3ccc(Cl)cc3)c2n1 | . | . | . | . | -3.6 | -90.5 | 5469
COc1cccc(COC(=O)CCNC(=O)c2ccc(Cl)cc2)c1OC | 4.2 | 3.4 | 4.6 | 0.7 | -7.2 | -19.8 | ?

Record cards, as listed above:
Results for Cc1nc2c(C(=O)NCc3ccc4c(c3)OCO4)cnn2c(C)c1Cc1ccc(F)cc1Cl : Mtb hypoxia inh = -0.5; Mtb hypoxia inh growth = 5.1; ugtP null kill = -7.0; RN4220 kill = 0.0; BJeLR viability = -9.0; PrP 5UTR inh = .; Bead autofluor = 11991
Results for c1ccc(CCCNc2ncnc3nc[nH]c23)cc1 : Mtb hypoxia inh = 9.0; Mtb hypoxia inh growth = 3.8; ugtP null kill = 10.2; RN4220 kill = 5.3; BJeLR viability = 2.0; PrP 5UTR inh = -6.1; Bead autofluor = 5306

Additional entries follow:
SMILES | Mtb hypoxia inh | Mtb hypoxia inh growth | ugtP null kill | RN4220 kill | BJeLR viability | PrP 5UTR inh | Bead autofluor
CCCN1CCC(=NNc2ccc(S(=O)(=O)N3CCOCC3)cc2[N+](=O)[O-])CC1 | -4.2 | -0.6 | 1.0 | 2.6 | 41.2 | 16.1 | 7504
Cc1onc(NC(=O)c2ccc(Cl)cc2Cl)c1Br | 11.5 | 1.1 | 3.2 | 0.3 | -5.5 | -42.7 | 4487
O=C(Cc1cccc2ccccc12)NNC(=O)Nc1ccc(Cl)cc1 | 9.4 | -1.0 | -36.7 | 3.6 | -13.6 | . | 3653
Cc1ccc(N2C(=O)N(CC(=O)NC(c3ccccc3)c3ccccc3)C(=O)C2C)cc1 (stereo unspecified) | . | . | 5.8 | -3.8 | 5.3 | -11.5 | 2791
CC(C)(Oc1ccc(Cl)cc1)C(=O)Nc1ccc2oc(-c3ccncc3)nc2c1 | . | . | 1.6 | -0.3 | 7.0 | -6.0 | 5931
CCOC(=O)c1[nH]c(C)c(C(=O)N2CCN(C(=O)OCC)CC2)c1CC | . | . | 3.5 | -3.0 | 0.4 | -2.0 | 2136
CCCN1C(=O)C(O)(CC(=O)c2cccc(OC)c2)c2ccccc21 (stereo unspecified) | . | . | 2.8 | 1.7 | -7.6 | -33.7 | 2690
O=C(CC(c1ccccc1)c1cc(Cl)ccc1O)N1CCOCC1 (stereo unspecified) | -1.5 | -1.0 | -3.5 | 2.7 | -5.3 | -13.6 | 9999
O=C(Nc1ncc2c(n1)-c1ccccc1CC2)c1cccs1 | 10.7 | 8.5 | -2.4 | 3.7 | 3.9 | -37.0 | 4758
COc1ccccc1C(=O)Nc1ccon1 | 6.4 | 2.8 | 4.6 | 0.2 | 5.3 | -13.7 | 10959
CCOC(=O)c1c(-c2ccccc2)oc2cc(Br)c(O)c(C=O)c12 | 4.4 | 7.0 | 73.7 | -4.5 | -2.3 | -20.4 | 3505
COc1ccc(N2CCN(C(=O)CCn3nnc4ccccc43)CC2)cc1 | 6.8 | 13.9 | 2.5 | 0.1 | 0.4 | 5.2 | 4358
O=C(O)c1cccc(-n2c(-c3cnccn3)n[nH]c2=S)c1 | 1.7 | -8.4 | -0.6 | 1.2 | 2.7 | -7.9 | 3691
O=C(COC(=O)c1ccccc1Nc1cccc(C(F)(F)F)c1)NCc1ccco1 | . | . | 7.2 | -1.3 | -2.8 | -5.1 | 3824
O=C(c1ccccc1)c1ccc(-n2cnnc2)c([N+](=O)[O-])c1 | -6.1 | 14.1 | 4.3 | 8.6 | -9.5 | -9.5 | 5461
COc1ccc(NC(=O)CN(C)CC(=O)N2CC(=O)Nc3ccccc32)cc1 | 7.3 | -0.3 | 2.2 | 2.0 | . | -9.5 | 6589
O=C1OCC/C1=C\c1ccc2c(c1)OCO2 | 0.8 | 0.8 | 3.8 | 4.8 | 8.8 | -11.6 | 3997
O=C(CNS(=O)(=O)c1cccc2nsnc12)NCCc1ccccc1 | 9.4 | 5.2 | 1.4 | 3.1 | -4.1 | -20.1 | 6520
CC(=O)NC(CCS(C)(=O)=O)C(=O)Nc1ccccc1C (stereo unspecified) | 16.4 | 2.0 | 3.8 | 1.3 | 1.5 | -30.9 | 10151
O=C1c2ccccc2NC(c2ccccc2O)N1c1ccc(F)cc1 (stereo unspecified) | 9.3 | -2.0 | -0.1 | 3.1 | -0.1 | -60.9 | 3305
CCc1ccc(/C=N/n2c(C3CCCCC3)n[nH]c2=S)cc1 | . | . | . | . | 2.5 | -8.9 | 4007
Cc1ccc(-c2nc(-c3ccncc3)no2)cc1 | -0.7 | -4.9 | 11.8 | 7.4 | -0.8 | -4.0 | 2996
O=C(c1ccc(NS(=O)(=O)c2ccc(F)cc2)cc1)N1CCCCC1 | 10.9 | 1.5 | 1.5 | 3.9 | -5.3 | -1.8 | 4927
O=C(N/C(=C\c1cccnc1)C(=O)N1CCC(O)CC1)c1ccccc1 | 9.6 | 5.8 | 15.0 | 1.6 | -1.2 | -30.3 | 3444
CN(Cc1ccccn1)C(=O)c1ccc2nc(Cc3cccc(Cl)c3)oc2c1 | 2.9 | 12.2 | -5.9 | -2.7 | 2.0 | -0.5 | 5645
O=C1Nc2ccccc2/C1=C/c1ccc([N+](=O)[O-])cc1 | -2.2 | 10.4 | 14.6 | 3.7 | 4.3 | -6.2 | 3116
C=CCn1c(NCc2ccccc2OC)nc2ccccc21 | -1.8 | 2.0 | -1.9 | 3.1 | -5.5 | -17.2 | 4181
COc1ccc(OCCNC(=O)c2ccccc2Cl)cc1 | 8.9 | 2.3 | 3.8 | 1.5 | 4.0 | . | 3787
O=C(CN(C(=O)c1csnn1)c1ccc(Cl)cc1)NCc1ccc2c(c1)OCO2 | -6.2 | 6.2 | -4.3 | 0.8 | 4.9 | -3.3 | 3867
OCCC1CN(CC2CC2)CCN1Cc1ccc(F)c(F)c1 (stereo unspecified) | 15.5 | -0.1 | 8.4 | 1.3 | -11.1 | -19.6 | 4555
CCOC(=O)c1ccc2c(c1)[nH]c(=S)n2CC | -14.9 | -7.8 | 4.8 | 4.6 | 5.2 | -34.1 | 2550
COc1cc(N2CCOCC2)ccc1/C=C1\C(=O)NC(=O)N(Cc2ccc3c(c2)OCO3)C1=O | 7.7 | 18.2 | 1.1 | 1.9 | 12.9 | 6.2 | 4530
Cc1ccccc1NC(=O)C(=O)NCc1ccccn1 | 10.9 | 7.2 | -3.2 | 8.6 | -8.2 | -9.6 | 9676
COc1ccc(-n2ncc3c2CC(C)(C)CC3NC(=O)C2CCN(C(C)=O)CC2)cc1 (stereo unspecified) | -5.8 | 2.0 | 3.0 | -1.6 | 1.5 | -0.7 | 5463
NC(=O)CC(NC(=O)c1ccccc1)c1ccc(N2CCN(c3ccccn3)CC2)c([N+](=O)[O-])c1 (stereo unspecified) | 17.6 | 8.2 | 0.9 | 5.8 | 2.6 | -25.2 | 4365
CCC1SC2=NC(C)=C(C(=O)OCCOC)C(c3ccc(C(=O)OC)cc3)N2C1=O (stereo unspecified) | 2.1 | -0.4 | -3.8 | -1.0 | -2.6 | -12.8 | 3793
COc1ccc(C2Nc3ccccc3C(=O)N2Cc2ccccc2)cc1OC (stereo unspecified) | -1.1 | 5.9 | 6.3 | 2.1 | -14.2 | . | 3692
COc1ccc(OC)c(/C=C(\C)C(=O)c2c(C)cc(C)[nH]c2=O)c1 | -4.4 | -4.5 | 3.3 | 2.0 | -10.1 | -10.9 | 3993
O=C(c1ccc2[nH]c(=O)c(=O)[nH]c2c1)N1CCc2ccccc2C1 | 3.1 | 0.6 | 3.6 | -1.1 | -2.1 | -9.3 | 5544
Cc1cc(C)nc(SCC(=O)NN=Cc2cccn2-c2ccc(O)cc2)n1 | 1.0 | 1.6 | -3.5 | 0.4 | . | . | .
Cc1ccc(C(=O)CSc2nnnn2-c2ccccc2)o1 | 12.6 | 2.0 | -2.0 | 7.2 | 4.9 | -6.7 | 4844
CC1(C)SC(C)(C)N(C=O)C1C(=O)O (stereo unspecified) | 9.5 | 8.0 | -1.3 | 2.5 | . | -11.5 | 4043
Nc1c(C(=O)NCCN2CCOCC2)c2nc3ccccc3nc2n1-c1cccc(F)c1 | 14.8 | 8.0 | -8.6 | -12.1 | -3.5 | -11.9 | 2596
CCOc1ccc(NC(=O)CN(C)C(=O)c2cc(S(=O)(=O)N3CCCCCC3)ccc2OC)cc1OCC | -0.2 | 4.9 | 4.5 | -1.4 | 6.3 | -30.2 | 6055
C[C@]12CS(=O)(=O)C[C@H]1SC(=S)N2c1ccccc1 | -11.4 | -3.1 | -1.5 | -2.8 | -6.2 | -18.6 | 4687
Nn1c(SCC(=O)Nc2ccc3c(c2)OCO3)nnc1-c1ccccc1 | 4.2 | 5.9 | 3.4 | 5.8 | 0.8 | -45.3 | 3160
CC(C)CC(=O)Nc1cccc(-c2nc3ncccc3o2)c1 | 0.2 | -1.1 | -5.7 | 2.3 | 5.9 | -17.9 | 3463
Cc1ccc(O)c(C(=O)c2cnc3c(c2)c(=O)n(C)c(=O)n3C)c1 | -7.6 | -2.8 | 32.7 | 14.9 | 3.6 | -22.8 | 4919

Rows are unselected (roughly 4.1% active in at least one column).
